# RE007 growth inh: less growth of the S. pombe RE007 Vpr strain; S. pombe RE007 Vpr strain, BacTiter-Glo ATP luminescence, 24 h; control for the full effect not named in the record; Potency, µM (top dose mostly 92.2 µM), for inactives: at the top dose activity change, negative = less growth; 360,000 compounds, 0.21% hits; active = well fitted falling curve with a large enough effect; inconclusive = small, poorly fitted or top-dose-only effect; inactive = no such curve, though single readings can be large or run the other way;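 further: on the % scale 0 is the no-effect control and ±100 the full control effect; nearly all actives have a fitted effect of over 50% in size; the assay follows cell death caused by Vpr and the record does not say whether a fall means rescue or toxicity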
#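 Fission yeast strain RE007, carrying one chromosomally integrated HIV-1 vpr copy, was seeded at OD 0.01 in PMG+AL medium with 23 nL pinned compound. After 24 h at 30 °C and 99% humidity, viability was read by BacTiter-Glo luminescence.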
# 2A StopGo: lowers the luciferase signal of an FMDV 2A StopGo reporter; human cells with a luciferase reporter of 2A StopGo recoding; control for the full effect not named in the record; Potency, µM (series often up to 57.9 µM), for the others: at the highest dose signal change, negative = less light; 410,000 compounds, 1.2% hits; AID 1159524; active = well fitted falling curve with a large enough effect; inconclusive = small, poorly fitted or top-dose-only effect; inactive = no such curve, though single readings can be large or run the other way; tested in HEK293T cells; further: on the % scale 0 is the no-effect control and ±100 the full control effect; nearly all actives have a fitted effect of over 45% in size; luciferase light after 4 h
# MARV entry inh: inhibitors of Marburg virus binding or cell entry | Marburg virus pseudotyped entry inhibition, cell reporter; control for the full effect not named in the record; about a third of the inactives were read at about 46 µM | Potency, µM (series often up to 37.8 µM), inactives show top-dose activity change, negative = inhibition, hits mostly inhibitors | 300,000 compounds, 1.8% hits | AID 540276; active = well fitted inhibition curve with a large enough effect; inconclusive = small, poorly fitted or top-dose-only effect, or effect the other way; inactive = flat fitted curve, though single readings scatter; tested in HEK293 cells; about a fifth of its hits are not listed in these tables; further: on the % scale 0 is the no-effect control and ±100 the full control effect; luciferase read-out
# Cruzain Triton: inhibitors of Trypanosoma cruzi cruzain with detergent | AID 1478 | 200,000 compounds, 0.43% hits | P25779 | Potency, µM, for inactives: max response, negative = inhibition, usual class: inhibitors | purified cruzain, Z-FR-AMC fluorescence, 0.01% Triton; active means well fitted curve in the direction sought with a large enough effect; inconclusive means small, poorly fitted or top-dose-only effect, or another doubt; inactive means no such curve, though single readings can be large; an effect the other way counts as inactive or inconclusive;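 further: plate controls were neutral wells for no effect and buffer without enzyme for full effect; nearly all actives have a fitted effect of over 40% in size; top concentration of the series not given in the record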
# Target sequence (P25779 123-467 limits assumed): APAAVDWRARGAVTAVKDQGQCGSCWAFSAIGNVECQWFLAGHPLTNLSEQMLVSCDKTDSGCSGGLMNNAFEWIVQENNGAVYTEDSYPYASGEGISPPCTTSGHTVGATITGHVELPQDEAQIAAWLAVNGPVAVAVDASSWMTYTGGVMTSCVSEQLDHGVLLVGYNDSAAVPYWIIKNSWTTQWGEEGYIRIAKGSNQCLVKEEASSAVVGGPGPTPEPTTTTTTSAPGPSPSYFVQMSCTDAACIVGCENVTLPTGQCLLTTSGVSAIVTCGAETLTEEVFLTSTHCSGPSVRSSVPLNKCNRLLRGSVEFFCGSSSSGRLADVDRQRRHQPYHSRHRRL
#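 Purified cruzain (1.5 nM final) was preincubated with compounds for 15 min at room temperature in 100 mM sodium acetate pH 5.5, 5 mM DTT, 0.01% Triton X-100. Reaction started with 2 uM Z-FR-AMC; AMC fluorescence change over 60 s gave activity.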
# Cruzain inh noDet: blocks cruzain activity in detergent-free assay; AID 1476; P25779; 200,000 compounds, 2.3% hits; purified cruzain, Z-FR-AMC fluorescence, no detergent; Potency, µM, without a hit: max response, negative = inhibition, actives largely listed as inhibitors; active means well fitted curve in the direction sought with a large enough effect; inconclusive means small, poorly fitted or top-dose-only effect, or another doubt; inactive means no such curve, though single readings can be large; an effect the other way counts as inactive or inconclusive;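 further: plate controls were enzyme without inhibitor for no effect and buffer without enzyme for full effect; nearly all actives have a fitted effect of over 40% in size; top concentration of the series not given in the record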
#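 Detergent-free condition (0.00005% Triton X-100) in acetate buffer pH 5.5 with DTT. 1.5 nM enzyme and compound were pre-mixed 15 min, then 2 uM Z-FR-AMC substrate added; reaction progress from fluorescence change between first and third reads (60 s).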
# SARS PLpro yeast: blocks SARS-CoV papain-like protease in a yeast assay. S. cerevisiae expressing SARS-CoV PLpro, growth rescue; control for the full effect not named in the record. Potency, µM (titrated, usually from 32.9 µM), inactives show at the highest dose activity, positive = growth rescue. 330,000 compounds, 0.19% hits; further: 0% is about no effect; nearly all actives have a fitted effect of over 55% in size; growth read by luminescence after 48 h
# NS1 inh: blocks influenza NS1 protein function; S. cerevisiae slowed by influenza A NS1, growth recovery by OD600; Potency, µM (highest dose often 46.1 µM), without a hit: top-dose activity, positive = more growth; 270,000 compounds, 0.4% hits; further: actives are rising curves; nearly all actives have a fitted effect of over 50% in size
#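 Recovery from NS1-induced slow growth read by OD600 in budding yeast switched to galactose assay medium (pH 6.0, -URA) at 1:100 dilution. Compound 23 nl per well; the matching strain lacking NS1 serves as control.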
# Lassa entry inh: blocks Lassa virus binding to or entry into cells | 300,000 compounds, 1.2% hits | AID 540256 | Lassa virus pseudotype entry inhibition, cell reporter; control for the full effect not named in the record | Potency, µM (series often up to 37.9 µM), for the others: at the highest dose activity change, negative = inhibition, hits mostly inhibitors; active means well fitted inhibition curve with a large enough effect; inconclusive means small, poorly fitted or top-dose-only effect, or effect the other way; inactive means flat fitted curve, though single readings scatter; tested in HEK293 cells; further: on the % scale 0 is the no-effect control and ±100 the full control effect; nearly all actives have a fitted effect of over 50% in size; luciferase read-out
# Starred values were filed as active, the others as inactive; ? = inconclusive; · = no result given; & = joins results of further samples; [ ] = dose if it differs, or a comment. Unless noted, the call rests on the fitted dose curve; in most records, active means well fitted rising curve with a large enough effect; inconclusive means small, poorly fitted or top-dose-only effect; inactive means no such curve, though single readings can be large or run the other way. Potency means the concentration at half of the fitted maximal effect.
SMILES,RE007 growth inh,2A StopGo,MARV entry inh,Cruzain Triton,Cruzain inh noDet,SARS PLpro yeast,NS1 inh,Lassa entry inh
Cc1ccc(Cn2ncc3c(N4CCN(CCc5ccccc5)CC4)ncnc32)cc1,-3%,?,?,·,·,1%,-2%,-20%
COc1ccc2c(c1)CCc1c(C(=O)Nc3c(C)nn(Cc4ccccc4)c3C)noc1-2,-2%,28µM*,12%&11%[46.1 µM],-9.4%&-13%,2%&-4%,-4%,6%,6%[46.1 µM]
COc1ccc(CN2CCNC(=O)C2CC(=O)NCCCn2nnc3ccccc32)cc1C (stereo not given),4%,-1%,5%[46.1 µM],·,·,?,21%,19%[46.1 µM]
CC(C)CC(=O)NC(Nc1ccc([N+](=O)[O-])cc1)C(Cl)(Cl)Cl (stereo not given),5%,32µM*,?,-7.9%,5%,-6%,-8%,?
COc1ccc(NC(=O)COc2coc(CN3c4ccccc4CC3C)cc2=O)cc1 (stereo not given),-9%,-13%,-2%,·,·,-3%,·,-15%
COC(=O)c1ccc2c(=O)n(Cc3ccc(C(=O)NCCCN4CCC(C)CC4)cc3)c(=S)[nH]c2c1,-1%,6%,?,·,·,-2%,·,?
Cc1ccc(S(=O)(=O)N2CCCCC2)cc1NC(=O)CN1CC=C(c2ccccc2)CC1,-24%,?,?,-5.9%,-19%,5%,14%,?
CCOc1[nH]c(/N=C/c2ccco2)c(C#N)c1C#N,10%,-20%,6%,2.8%,-8%,-2%,-60%,-1%
NC1=C(Br)C(=O)c2ncccc2C1=O,-32%,4µM*,2.5µM*,·,·,·,·,?
CCCCCC1CC(CC(=O)Nc2ccc([N+](=O)[O-])cc2)C(=O)O1 (stereo not given),9%,-13%,-5%,-9.2%,10%,-17%,-9%,·
Cc1cc(C(=O)CN2C(=O)NC(C)(c3cccc(Br)c3)C2=O)c(C)n1Cc1ccco1 (stereo not given),-7%,-19%,?,-1.0%,32µM*,1%,?,-18%
Cc1ccc(/C(=N\S(=O)(=O)c2ccc(Br)cc2)Nc2ccccc2C)cc1,-2%,0%,11%[46.1 µM],·,·,-3%,-7%,-2%[46.1 µM]
COc1ccc(OC)c(CNC(=O)CN2N=C(c3ccc(Cl)cc3)CCC2=O)c1,·,-12%,·,0.5%,21%,·,·,?
CCOC(=O)c1cc(CC)sc1NC(=O)c1ccc2c(c1)OCCO2,-19%,-16%,?,-3.8%,-1%,0%,11%,3%
S=C(Nc1ccccn1)c1ccccn1,-5%,0%,?,-5.0%,-6%,-3%&0%,-14%&-73%,?
OC(c1ccccc1)(c1ccc(F)cc1)C(c1ccccc1)N1CCOCC1 (stereo not given),24%,-15%,?,-2.7%,-7%,-19%,-21%,?
O=C1N(Cc2ccc(F)cc2Cl)c2ccccc2C12OCCCO2,6%,?,-21%,-5.3%,4%,-18%,-2%,6%
COc1ccc2cc(CN(C(=O)Nc3ccccc3)C3CCCC3)c(=O)[nH]c2c1,14%,-28%,?,-8.4%,-4%,6%,-30%,-21%
CCCCON1C(=O)c2cccc3cccc(c23)C1=O,-6%,24%,·,·,·,-6%,-16%,·
Cc1c(/C=N\NC(=O)C2COc3ccc(C(C)(C)C)cc3O2)c2ccccc2n1C (stereo not given),-1%,-31%,9%,-5.6%,-24%,3%,19%,10%
O=S(Cc1ccc(Br)cc1)Cc1nnc(SCc2ccc(Cl)cc2)n1-c1ccccc1 (stereo not given),-1%,0%,?,-0.3%,22%,-7%,?,13µM*
CC(=O)NC12CC3CC(C1)CC(C(=O)OCC(=O)c1cc(C)n(C)c1C)(C3)C2,17%,?,?,·,·,-1%,·,?
CCc1cc(=O)oc2cc(OCC(=O)NCCCn3ccnc3)ccc12,-3%,-19%,·,·,·,7%,2%,·
COC(=O)CSc1cc(C(F)(F)F)nc(-c2ccccn2)n1,-15%[3.69 µM],-7%,?,6.9%,0%,-2%,-6%,-2%
Cc1cccc(C2NS(=O)(=O)N=C2N)c1 (stereo not given),1%[3.69 µM],12%,8%,5.3%,1%,6%,-2%,0%
Cc1cccc(NC(=O)Cn2c(/C=C/c3ccccc3)nc3ccccc32)c1,43%,23%,-9%,-6.0%,5%,-53%,8%,0%
Cc1ccc(SC(c2ccc(C)cc2)C(Cn2cncn2)C(=O)c2ccccc2)cc1 (stereo not given),5%,-27%,?,-3.9%,-5%,-2%,5%,-15%
COc1ccc(C)cc1NC(=O)c1ccc(NS(=O)(=O)c2c(C)noc2C)cc1,5%,3%&-25%,8%&-27%[46.1 µM],0.4%,-6%,0%,21%,6%&3%[46.1 µM]
CN(CC(=O)Nc1ccc(Cl)cc1F)C1=NS(=O)(=O)c2ccccc21,13%,-8%,-4%,·,·,6%,·,13%
NC(=O)NC(CC(=O)OCC(=O)NC(=O)NCc1ccco1)c1ccc(Cl)cc1 (stereo not given),12%,0%,-1%,1.2%,9%,14%,-3%,-7%
CC12CCC(C(=O)N(c3ccccc3Cl)C1=O)C2(C)C (stereo not given),-3%,25%,21%,0.8%,1%,-11%,-15%,1%
CC(C)c1ccc(NC(=S)N2CCN(S(=O)(=O)c3ccccc3)CC2)cc1,5%,32%[activator],-8%[46.1 µM],·,·,11%,8%,?
S=C1NC2=C(CCC/C2=C\c2ccccc2)C(c2ccccc2)N1 (stereo not given),-14%,?,?,-2.5%,?,-3%,18%,-2%
Cc1ccc(C)c(C(C)NC(=O)CC#N)c1 (stereo not given),6%,-10%,·,·,·,-1%,3%,·
CCCCN(C)CCNC(=O)CN1C(=O)CSc2ccc(S(=O)(=O)N3CCCC3)cc21,-6%,20%,·,·,·,?,-7%,·
CCCc1cc2c(=O)c(-c3nc4ccccc4s3)c(COCC(=O)O)oc2cc1O,5%,10%,24%[46.1 µM],·,·,1%,·,20%[46.1 µM]
O=C(NNc1nc(=O)c2cccnc2s1)c1ccccc1O,-6%,46%[activator],11%[46.1 µM],·,·,12%,·,?
Cc1nnc(SCC(=O)Nc2sc3c(c2C#N)CCCC3)[nH]c1=O,5%,-21%,19%[46.1 µM],-8.8%,?,0%,5%,14%
CN(C)Cc1ccccc1Sc1ccc(O)cc1O,11%,-13%,25%,-11%,-15%,13%,-3%,3%
CCOC(=O)c1cnc2c(OC)cccc2c1Oc1ccccc1,2%,0%,·,·,·,-2%,6%,·
O=C(CN1CCOCC1)c1ccc2cc[nH]c2c1,-8%,16%,0%,-5.1%,6%,-17%,-10%,-13%
CC12CC[C@H]3[C@@H](CCC4(O)C[C@H](O)CCC34/C=N/NC(=O)c3ccccc3[N+](=O)[O-])C1(O)CCC2C1=CC(=O)OC1 (stereo not given in full),-2%,-23%,?,·,·,1%,-5%,?
Cc1ccc(/C=C/C(=O)Nc2cc(S(=O)(=O)N3CCCCCC3)ccc2OCC(F)(F)F)o1,-4%,-33%,?,-12%,-26%,-8%,24%,-9%
CN(CC(=O)Nc1ccccc1F)S(=O)(=O)c1ccc2c(c1)n(C)c(=O)c(=O)n2C,12%,-14%,·,·,·,-2%,-4%,·
CC1=CC(C)(C)N2C(=O)C3(SCC(=O)N3c3ccc(F)cc3)c3cc(C)cc1c32 (stereo not given),3%,18µM*,?,-4.9%,-8%,-42%,-11%,-3%
O=C(NCc1ccccc1)c1ccc(Br)cc1Br,3%,58%[activator],17%,-6.2%,-9%,18%,3%,-3%
Clc1ccc(Cn2cc(/C=N/n3cnnc3)c3ccccc32)cc1,12%,?,-24%,-2.7%,-11%,-2%,-6%,?
COc1cc(C2CC(=O)Oc3c(C(CCN4CCN(c5ccccc5)CC4)c4ccc(N(C)C)cc4)c(OC)cc(OC)c32)cc(OC)c1OC (stereo not given),-8%,0%,·,·,·,0%,-31%,·
COC(=O)c1c(NC(=O)COc2ccccc2Cl)sc2c1CCC(C(C)(C)C)C2 (stereo not given),·,-23%,·,3.4%,-7%,·,·,0%[46.1 µM]
Cc1cc(=O)n(CC(C)O)c(O)c1C#N (stereo not given),-2%,-4%,-17%,-3.7%,-5%,2%,4%,7%
Cn1c(CSc2ncccn2)nnc1SCC(=O)N1CCCCCC1,0%,-3%,·,·,·,0%,-3%,·
COc1cc(NC(=O)Cn2ncc3c(=O)oc4ccccc4c32)cc(OC)c1OC,·,-24%,-14%[46.1 µM],-1.3%,0%,·,·,16%[46.1 µM]
CC(=O)N1CCc2cc(N=NC3=C(O)CCCC3=O)ccc21,7%,5%,?,·,·,-3%,·,-1%[46.1 µM]
O=C(Cn1ccc([N+](=O)[O-])n1)NCc1ccccc1,-6%,-1%,?,·,·,·,·,5%
CCOc1ccc(NC(=O)Cn2c(=O)n(CCCC(=O)NCc3ccc4c(c3)OCO4)c(=O)c3ccccc32)cc1,·,-7%,0%[46.1 µM],-1.5%,-6%,·,·,0%[46.1 µM]
CCOC(=O)/C(C#N)=C/c1c(Oc2cccc(C)c2)nc2c(C)cccn2c1=O,-1%,-14%,23%,1.1%,-1%,-2%,3%,5%
COc1ccc(CN(C)S(=O)(=O)c2nnc(NC(=O)c3cccc(F)c3)s2)cc1,-12%,4%,14%[46.1 µM],·,·,1%,11%,6%[46.1 µM]
CCOC(=O)c1c(-c2ccccc2)oc2ccc(NS(=O)(=O)c3ccc(C(C)C)cc3)cc12,·,24%,-3%[46.1 µM],-3.3%,20µM*,·,·,-13%[46.1 µM]
COCc1nc(-c2ccc(-c3ccccc3)nc2OC)no1,-25%,57%[activator],14%,-8.7%,138%,-25%,-14%,9%
COc1ccc(C(=O)c2coc3c2C(=O)C(=O)c2ccccc2-3)cc1,40µM*,41%[activator],?,·,·,-4%,-80%,11µM*
CC(=O)Nc1ccc(NC(=O)CSc2nccn2Cc2ccco2)cc1,-8%,-4%,0%,·,·,1%,2%,6%
CCCOc1ccc(C(=O)NCCC(=O)NCCCC(=O)O)cc1,0%,-3%,24%[46.1 µM],·,·,-1%,4%,-27%
